LT uptake inh: anthrax lethal toxin internalization inhibition; Cells, anthrax lethal toxin internalization, FRET ratio (460/530); Potency, µM (series often up to 40 µM), without a hit: at the top dose activity change, negative = inhibition, most hits filed as inhibitors; 70,000 tested, 0.67% active; AID 912; active = well fitted falling ratio curve with the 530 nm signal flat; inconclusive = other ratio curves, or a change in one channel alone; inactive = flat curves in the ratio and both channels; the % refers to the ratio; note: % is set by controls: 0 for no effect and ±100 for the full control effect; nearly all actives have a fitted effect of over 50% in size; tested in ME-180 cells; beta-lactamase reporter
Prx2 Sm inh: Schistosoma mansoni Prx2 inhibition; S. mansoni Prx2 activity coupled to TGR/GSH (TGR is thioredoxin glutathione reductase), NADPH fluorescence loss, qHTS; some inactives read as strong as hits; Potency, µM; 65,000 tested, 0.07% active; AID 448; active means full or partial inhibition curve with a strong effect at the top dose; inconclusive means weaker partial or single-point curve; inactive means no accepted curve; note: series up to 57 µM; many of its hits are not listed in these tables
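Coupled assay in which S. mansoni TGR passes NADPH reducing equivalents via glutathione to Prx2, which reduces H2O2. Compounds were preincubated 15 min at room temperature with 25 nM TGR/50 nM Prx2 mix. Kinetic NADPH fluorescence loss (ex 365/em 450 nm) was monitored.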
An asterisk follows results filed as active; ? = inconclusive; . = no result given; & = joins results of further samples; [ ] = remark or other dose. Potency is the fitted concentration of half-maximal effect. Only part of the results is shown; count on the stated rates, not on these rows.

Molecule,LT uptake inh,Prx2 Sm inh
O=C1CC(N2CCN(CCc3ccccn3)CC2)C(=O)N1c1ccc(Cl)cc1 (stereo not given),-6.5%,>57
CCCC/C=C/C(NC(=O)c1ccccc1)c1ccccc1 (stereo not given),?,>57
COC(=O)c1ccc(CC(=O)c2c(C)cc(O)cc2O)o1,-15.0%,.
Cc1cc(N2CCN(C)CC2)nc(N2CCOCC2)n1,-13.0%,>57
N#Cc1nc(-c2ccccc2Cl)oc1NCc1ccco1,3.4%,>57
O=C(NCc1ccc(Cl)cc1)c1cccnc1,13.4%,.
Cc1cnc(N)c2c(=O)oc3ccccc3c12,-0.5%,>57
CC(C)OC(=O)CCCCCN1C(=O)CSC1=S,0.6%,>57
CN(C)C(=O)N1CCCC(C(=O)NCc2cccs2)C1 (stereo not given),-2.5%,>57
CCC(=O)Nc1cc(-c2nn(C)c(=O)c3ccccc23)ccc1OC,-13.1%,>57
Nc1nnc(Cc2c[nH]c3ccccc23)s1,-0.7%,>57
Cc1cccc(N2CCN(c3nc4ccccc4n4cnnc34)CC2)c1C,-15.8%,>57
Cc1ccccc1-n1c(SCC(=O)N2CCCC2)nnc1-c1ccccn1,3.2%,>57
COc1ccc(N2CCN(C(=O)CSc3nnc(COc4cccc5cccnc45)o3)CC2)cc1,-17.7%,>57
CCOc1ccccc1NC(=O)Cn1nnc(-c2ccc(OCC)c(OCC)c2)n1,-0.2%,>57
Cc1nc2cc(NC(=O)N(C)c3ccc4ccccc4c3)ccc2o1,14.6%,>57
c1cc(CN2CC3(CCNCC3)C2)ccn1,2.3%,>57
CCCCCCn1c(CN2CCCCC2CC)nc2c1c(=O)n(C)c(=O)n2C (stereo not given),?,>57
COc1ccc(N(CC(=O)NC2CCCCCCC2)S(=O)(=O)c2c(C)nn(C)c2C)cc1,-9.1%,>57
O=C(Nc1nc2ccccc2n1Cc1ccccc1)c1ccco1,3.2%,>57
O=C(COc1ccc(S(=O)(=O)N2CCOCC2)cc1)NC1CCCC1,-0.5%,>57
COC(=O)c1[nH]c2cc(OC)c(OC)cc2c1NC(=O)c1cccc(OC)c1,-16.1%,?
COc1ccc(Cc2nn3c(-c4cc(OC)c(OC)c(OC)c4)nnc3s2)cc1,-5.5%,>57
CC(=O)NCc1ccc(C(=O)CSc2nnc(-c3ccncc3)n2Cc2ccccc2)o1,-5.8%,>57
COc1ccc(C(=O)Cn2nnc(-c3ccccc3NC(=O)c3ccco3)n2)cc1,1.9%,>57
CC1CC(C)CN(c2oc(-c3ccccc3Cl)nc2C#N)C1 (stereo not given),-8.6%,>57
O=C(CS(=O)(=O)c1ccccc1)N1CCCCCC1,?,>57
CC(C)(C)OC(=O)NC(CCCCNC=O)C(=O)O (stereo not given),5.2%,>57
Cc1cc(NC(=O)CSc2nc(-c3cccs3)cc(C(F)(F)F)n2)no1,-3.3%,>57
COc1ccc(CC(=O)Nc2ccc3c(c2)OCO3)cc1S(=O)(=O)N1CCOCC1,1.3%,>57
N#CCCN1CCN(Cc2cc(-c3ccccc3)ccc2O)CC1,14.9%,>57
C[C@H](N)Cc1c[nH]c2ccc(O)cc12,?,>25.6&>57
CCOC(=O)c1c(C)c(C(=O)N2CCc3ccccc3C2)c(C)n1CC,?,>57
c1ccc(CSc2nnc3c4ccccc4c4ccccc4c3n2)cc1,-10.1%[8 µM],>11.4
Cc1ccc(N(CC(N)=O)C2SC(=O)NC2=O)cc1 (stereo not given),13.8%,>57
COc1cc(C2=Nc3c(c(C)nn3-c3ccccc3)P(=O)(N3CCOCC3)O2)cc(OC)c1OC (stereo not given),-1.7%,>57
CC(=O)NC(CCS(C)(=O)=O)C(=O)Nc1cccc(C)c1 (stereo not given),-2.7%,>57
CCCOc1cccc(C(=O)Nc2nnn(CCC)n2)c1,-5.3%,>57
COc1ccc(-c2nc(N)n(C(C)=O)n2)cc1,8.5%,>57
Cc1ccc(N2C(=O)[C@@H]3Cc4ccccc4CN3C2=O)cc1,-8.7%,>57
N=C(N)n1cc(/C=N\N=C(N)N)cn1,-8.5%[8 µM],>57
CC(C)c1cccc2nc3c(c([Si](C)(C)C(C)(C)C)c12)Cn1c-3cccc1=O,?,>57
COc1cccc(CN(Cc2ccco2)C(c2ccc(F)cc2)c2nnnn2C(C)(C)C)c1 (stereo not given),?,>57
CCOC(=O)C(NCCCO)c1ccccc1 (stereo not given),-23.2%,>57
O=C(Cn1nnc(-c2ccc(Cl)cc2)n1)NCC1CCCCC1,9.7%,>57
CCOC(=O)C(CC)n1nc(C)n2c(cc3sccc32)c1=O (stereo not given),-5.2%,>57
CCOC(=O)C1CCCN(Cc2c(F)cccc2Cl)C1 (stereo not given),-4.5%,>57
CN(C)c1ncnc2c1ncn2CCn1cnc2c(N(C)C)ncnc21,?,>57
CCOC(=O)c1c2n(c3c(NCc4ccccc4)ncnc13)CCCC2,0.8%,>57
CCC(Sc1ncccc1C(=O)O)C(=O)N1CCOCC1 (stereo not given),15.6%,>57
CC(C)Sc1oc(-c2ccco2)nc1S(=O)(=O)c1ccc(F)cc1,6.1%,>57
O=C(O)Cc1ccccc1C(=O)O,-3.8%,>57
COc1ccc(Cl)cc1S(=O)(=O)N1CCN(C(=O)COc2ccccc2)CC1,-26.2%,>57
CCOC(=O)C1CCCN(c2ccc(NC(=O)c3snc4c(=O)[nH]cnc34)cc2)C1 (stereo not given),4.5%,>57
CCCCSc1nnc([C@H](CC(C)C)NC(=O)OC(C)(C)C)o1,-2.1%,>57
CCCn1c(SCC(=O)Nc2ccccc2CC)nnc1C(C)C,-18.3%,>57
COc1nnc(-c2ccc(C(=O)N3C[C@@H]4C[C@H](C3)c3cccc(=O)n3C4)cc2)c2ccccc12,?,>57
N#CCCN1CCN(S(=O)(=O)c2ccc(S(=O)(=O)NC3CC3)cc2)CC1,-0.6%,>57
O=C(CCn1c(=S)[nH]c2ccccc2c1=O)N1CCN(c2ccccn2)CC1,-6.7%,>57
COC(=O)c1ccc(NC(=O)C2CCCN(S(=O)(=O)c3cnc[nH]3)C2)cc1 (stereo not given),5.1%,>57

Compounds listed so far that contain a cyano group (four):
Molecule,LT uptake inh,Prx2 Sm inh
N#Cc1nc(-c2ccccc2Cl)oc1NCc1ccco1,3.4%,>57
CC1CC(C)CN(c2oc(-c3ccccc3Cl)nc2C#N)C1 (stereo not given),-8.6%,>57
N#CCCN1CCN(Cc2cc(-c3ccccc3)ccc2O)CC1,14.9%,>57
N#CCCN1CCN(S(=O)(=O)c2ccc(S(=O)(=O)NC3CC3)cc2)CC1,-0.6%,>57

The listing continues.
Molecule,LT uptake inh,Prx2 Sm inh
CCOC(=O)c1cccc(Nc2nc(C)cc(C)n2)c1,-1.4%,>57
CC(C)CN1CCC2(CC1)CCN(S(C)(=O)=O)CC2,?,>57
CN1CCN(C(=O)c2c(O)c3cccc4c3n(c2=O)CCC4)CC1,-11.3%,>57
O=S(=O)(NCc1ccc2c(c1)OCO2)c1cccc2nsnc12,-2.0%,>57
CCOC(=O)C1=C(C)Nc2ncnn2C1c1ccc(N(C)C)cc1 (stereo not given),13.8%,>57
Cc1ccc(CN2C(=O)CCC2C(=O)NCCCN2CCCC(C)C2)cc1 (stereo not given),5.7%,>57
CC(=O)Nc1cc(NC(C)=O)cc(C(=O)NC(C)(C)C)c1,-8.3%,>57
COC(=O)c1cc(=O)[nH]c(SCc2cccc(C)c2)n1,8.7%,>57
Cn1c(=O)cc(SCC(=O)N2CCN(C3CCCCC3)CC2)c2ccccc21,-6.4%,>57
CCCC[C@@H]1C[C@H]1C(NC(=O)c1ccco1)c1ccc(-c2ccccc2)cc1 (stereo not given in full),-9.5%,>57
O=C(C(Cc1ccccc1)n1cccc1)N1CCc2ccccc21 (stereo not given),?,>57
O=C(CSc1ccc2nnc(-c3ccc(Cl)cc3)n2n1)N1CCN(c2ccccc2)CC1,-2.4%,>57
COc1ccc(C2/C(=C(/O)c3ccc(Cl)cc3)C(=O)C(=O)N2CCN2CCOCC2)c(OC)c1 (stereo not given),-9.2%,>57
Cc1ccc(CNc2ccc3c(c2)OCO3)cc1,?,>57
O=C(O)CC[C@]1(C(=O)O)CCC(=O)c2ccccc21,-3.2%[8 µM],>57
COc1cc2c(cc1OC)-c1nncn1C(C)(C)C2,-13.4%,>57
O=C(Nc1cccc(F)c1)c1ccc(S(=O)(=O)N2CCOCC2)cc1,-4.0%,>57
CC(C)(C)c1cc(C(=O)NCc2cccnc2)ccn1,2.2%,>57
CCCCCCSc1cc(C)nc2ncnn12,?,>57
O=C(COC(=O)c1cnccn1)c1ccc(Br)cc1,1.0%,.

Entries of single compounds from above. Values in the order: LT uptake inh	Prx2 Sm inh
Record of O=C(COC(=O)c1cnccn1)c1ccc(Br)cc1 : 1.0%	.
Record of O=C(O)CC[C@]1(C(=O)O)CCC(=O)c2ccccc21 : -3.2%[8 µM]	>57

Additional structures follow:
Molecule,LT uptake inh,Prx2 Sm inh
O=S(=O)(c1cccc(-c2csc(-c3cccnc3)n2)c1)N1CCCCC1,?,>57
CN(Cc1ccco1)c1ncncc1-c1ccoc1,-8.0%,>57
COc1ccc(OC)c(C2C(C(C)=O)=C(O)C(=O)N2c2ccc(F)cc2)c1 (stereo not given),?,.
CCOc1ccc2cc(S(=O)(=O)N3CCOCC3)ccc2c1,-12.0%,>57
CCn1nnc(-c2ccccc2NC(=O)c2cc(OC)c(OC)c(OC)c2)n1,-7.7%,>57
CCOC(=O)C1C2C=CC3(CN(Cc4ccco4)C(=O)C13)O2 (stereo not given),?,>57
CC(=O)c1c(C)[nH]c(C(=O)Nc2c(C)n(C)n(-c3ccccc3)c2=O)c1C,-0.6%,>57
CN1CCCN(C)C1c1cc([N+](=O)[O-])ccc1O,?,>57
CC(O)(C#CCN1CCCC1)c1ccccc1 (stereo not given),-2.3%,.
Cc1cnc(CNc2ncnc3ccc(-c4ccc(N(C)C)cc4)cc23)cn1,-18.1%,>57
COC(=O)NC1CSCC1OC(=O)c1ccc(Br)cc1 (stereo not given),2.9%,>57
Cc1ccc2[nH]c(C)c(CN(C)C3CCN(C)CC3)c(=O)c2c1,-0.1%,.
COc1cccc([C@H]2Oc3ccc(OC)cc3/C(=N\O[C@@H](C)c3cn([C@H](CO)Cc4ccccc4)nn3)[C@@H]2O)c1,-4.5%&-14.7%[8 µM],.
COC(=O)C1=C(C(=O)c2ccccc2)C(c2cccs2)n2nnnc2N1 (stereo not given),-11.0%,>57
O=C(Nc1ccc2c(c1)OCCO2)c1ccc(Cl)c(S(=O)(=O)N2CCOCC2)c1,.,>57
COc1ccc(CN2CC(C(=O)NCCCN3CCCCCC3)CC2=O)cc1 (stereo not given),-1.9%,>57
CCn1c(N)c(C(N)=O)sc1=S,6.9%,>57
O=C1c2ccccc2C(=O)N1CCCc1nc(-c2ccc(Cl)cc2)no1,-10.5%,>57
Cc1ccc2nc(C)c(C)nc2c1N,0.5%,>57
COc1ccccc1N1CCN(C(=O)c2cc(-c3cccs3)on2)CC1,-18.5%,>57
CSc1oc(-c2ccc(F)cc2)nc1S(=O)(=O)c1ccccc1,-7.5%,>57
O=C(CSC1=NCCS1)N1CCN(c2ccccc2)CC1,1.2%,>57
N#Cc1cccc(NC(=O)N2CC[C@@]3(CCCN(C(=O)c4csnn4)C3)C2)c1,6.0%,>57
COc1ccc(CNc2ncncc2-c2ccc3c(c2)OCO3)c(OC)c1,17.8%,>57
COC(=O)C/C=C\[C@@H](C)[C@@H](/C=N\O[C@@H]1O[C@H](COC(C)=O)[C@@H](OC(C)=O)[C@H](OC(C)=O)[C@H]1OC(C)=O)NS(=O)(=O)c1ccc(C)cc1,-6.0%[1.6 µM],.
O=C(O)CCCc1ccc2ccccc2c1,-4.8%[8 µM],>57
CCN(CCCNC(=O)C1CCN(S(=O)(=O)c2cccc3nonc23)CC1)Cc1ccccc1,8.6%,>57
CC1(C)C(C(=O)NCc2ccco2)C1(C)C,2.8%,>57
Cc1ccc2nc(-c3ccccc3Cl)cc(C(=O)Nc3cc(C)on3)c2c1,-3.1%,>57
C=C(Cl)CCl,3.3%,.
O=C(O)CCC(=O)N(Cc1cccs1)Cc1cccs1,4.4%,>57
NC(=O)c1ccccc1-c1nc(-n2ccnc2)c2ccccc2n1,-5.6%,>57
Cc1ccc(C(=O)N2CCN(C)CC2)cc1S(=O)(=O)N1CCCCC1,2.0%,>57
CCCC[C@@H]1C[C@H]1C(NC(=O)c1ccco1)c1ccc(C(=O)OC)cc1 (stereo not given in full),-5.4%,>11.4
CCN1CCN(Cc2ccc(OC)c(OCc3ccccc3)c2)CC1,11.4%,>57
COc1ccc(NC(=O)N2CCC(O)(c3cccnc3)CC2)c(OC)c1,-11.1%,>57
O=C(Nc1ccncc1)c1cccs1,0.8%,>57
